Screens: PubChem, Broad Institute
Shh pathway inh – blocks Sonic Hedgehog signaling; 22,000 tested, 2.1% active; AID 2313; Shh-LIGHT2 Gli-luciferase reporter, 30 h; inhibition, % (test concentration not listed);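 active = replicate mean of 65% or more; inconclusive = mean lower but half the replicates past it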;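 also: pathway switched on by Shh-conditioned medium diluted 1 in 25 in low serum; 100 nL library stock added to about 40 µL; 0% = median of neutral wells and 100% = positive control level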
MITF inh – MITF inhibition. TRPM1 promoter luciferase, luminescence, 24 h. 37,000 tested, 0.28% active. inhibition, % (test concentration not listed);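 active = most replicates at 85% or more, or half of them and the mean; inconclusive = half reach 85% but not the mean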;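 also: human melanocyte line stably carrying TRPM1 promoter luciferase reporter; 0% = vehicle wells and 100% = a positive control; the first replicate is given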
YB-1 expr inh – YB-1 expression inhibition; U2OS, qRT-PCR YB-1 vs CDIP delta delta Cp, 16 h; active compounds read high; zero = DMSO, each unit about twofold; delta delta Cp (YB-1 minus CDIP) (concentration not given with the values); 30,000 tested, 0.37% active; AID 434959;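 active = delta delta Cp rounded down to an integer at or above 3, about 3 SD of DMSO wells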;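 also: higher means less YB-1 transcript or more CDIP transcript relative to DMSO; stock transfer was 100 nL into about 100 µL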
PD-1 reversal – activators reversing PD-1 mediated T-cell inhibition | AID 2316 | primary human CD4 T cells, PD-L1 beads, CellTiter-Glo 96 h | 29,000 tested, under 10 active | activation, % (concentration not given with the values);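 active = replicate mean of 50% or more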;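 also: 0% = median vehicle wells and 100% = positive control; 100 nL library stock added to about 50 µL; numbers are from one replicate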
Numbers without * were called inactive; ? = inconclusive; nt = no result given.

SMILES	Shh pathway inh	MITF inh	YB-1 expr inh	PD-1 reversal
COc1ccc(NC(=O)N(C)C[C@@H]2OCCCC[C@@H](C)Oc3ccc(NS(=O)(=O)c4cn(C)cn4)cc3C(=O)N([C@H](C)CO)C[C@@H]2C)cc1	-12	1	-0.022	3.2
COc1ccc(S(=O)(=O)N(C)C[C@@H]2Oc3ccc(NC(=O)Cn4cnnn4)cc3C(=O)N([C@H](C)CO)C[C@H]2C)cc1	nt	7	1	-0.1
CC(=O)OC[C@H]1O[C@@H](Oc2c(-c3ccc(O)c(O)c3)oc3cc(O)cc(O)c3c2=O)[C@H](O)[C@@H](O)[C@@H]1O	8	-8	-0.65	1.1
C[C@@H]1CCCCO[C@@H](CN(C)C(=O)Nc2ccc3c(c2)OCO3)[C@@H](C)CN([C@H](C)CO)C(=O)c2cc(NC(=O)CCC(F)(F)F)ccc2O1	7	-12	0.53	0.5
Cc1onc(-c2c(F)cccc2Cl)c1C(=O)N1CC(Oc2ccc(Cl)cc2)C1	14	3	-0.4	-0.6
CCOc1ccc(NC(=O)C(C)Sc2ccccn2)cc1 (stereo not given)	nt	-29	nt	0.6
C[C@H]1CN([C@@H](C)CO)C(=O)Cc2cc(NS(=O)(=O)c3ccccc3)ccc2O[C@H]1CN(C)Cc1ccccc1	0	-12	-0.24	0.3
C[C@@H]1CN([C@@H](C)CO)C(=O)c2cccc(NS(=O)(=O)c3cn(C)cn3)c2O[C@H]1CN(C)C(=O)Nc1ccccc1	-25	-4	-0.12	2.6
C[C@@H]1CCCCO[C@@H](CN(C)CC2CCCCC2)[C@@H](C)CN([C@H](C)CO)C(=O)c2cc(NC(=O)Nc3ccc4c(c3)OCO4)ccc2O1	30	-8	-0.093	-1.3
S=C(NCC1CC1)Nc1ccc(Cl)cc1	-35	-5	0.27	0.9
O=[N+]([O-])c1cccc(S(=O)(=O)NCCOc2ccccc2-c2ccccc2)c1	nt	18	nt	1.3
C[C@@H]1CN([C@H](C)CO)C(=O)c2cc(NS(=O)(=O)c3cn(C)cn3)ccc2O[C@@H]1CN(C)Cc1ccc(C(=O)O)cc1	-12	-6	0.0022	1.8
COc1cc(S(=O)(=O)Nc2cccc(C(=O)O)c2)c(OC)cc1Cl	nt	-8	nt	0.9
C[C@H](CO)N1C[C@H](C)[C@@H](CN(C)S(=O)(=O)c2cccs2)Oc2c(NC(=O)NC3CCCCC3)cccc2C1=O	23	9	0.0066	nt
CNC[C@H]1Oc2c(NC(=O)C3CC3)cccc2C(=O)N([C@H](C)CO)C[C@H]1C	18	0	-0.45	1.7
Cc1ccnc(NC(c2ccsc2)c2ccc3ccc(C)nc3c2O)c1 (stereo not given)	nt	7	nt	-17
C[C@@H]1CCCCO[C@H](CN(C)Cc2ccc(C(=O)O)cc2)[C@@H](C)CN([C@H](C)CO)C(=O)c2cc(NC(=O)Nc3cccc4ccccc34)ccc2O1	-9	2	-0.87	1.0
CCOC(=O)c1ccc(NC(=O)CSc2nccc(=O)[nH]2)cc1	nt	-11	nt	1.7
NC(=O)CN1C(=O)C(O)(CC(=O)c2ccncc2)c2ccccc21 (stereo not given)	nt	15	nt	1.9
C[C@@H]1CN([C@H](C)CO)C(=O)c2cccc(NC(=O)c3ccc(-c4nccs4)cc3)c2O[C@@H]1CN(C)Cc1ccc(-c2ccccc2)cc1	14	-12	-0.23	nt
Cc1noc(C)c1NC(=O)N(C)C[C@@H]1Oc2ccc(NC(=O)CCCCCC(=O)Nc3ccccc3N)cc2C(=O)N([C@H](C)CO)C[C@H]1C	nt	1	-0.24	1.1
COc1ccc(S(=O)(=O)Nc2ccc3c(c2)CC(=O)N([C@H](C)CO)C[C@@H](C)[C@@H](CN(C)S(=O)(=O)c2ccc(OC)cc2)O3)cc1	-14	-8	-0.023	nt
Cc1noc(C)c1S(=O)(=O)N(C)C[C@H]1OCCCC[C@@H](C)Oc2ccc(NC(=O)c3ccccc3)cc2C(=O)N([C@H](C)CO)C[C@@H]1C	8	-1	-0.29	-2.0
C[C@@H]1CCCCO[C@@H](CN(C)Cc2ccncc2)[C@@H](C)CN([C@H](C)CO)C(=O)c2cc(NS(=O)(=O)c3ccc(F)cc3)ccc2O1	3	-6	0.1	-1.8
COc1cc2oc(-c3ccc(O)c(O)c3)c(OC)c(=O)c2c(O)c1OC	-24	nt	1.6	nt
CNC[C@H]1Oc2c(NC(=O)NC3CCCCC3)cccc2C(=O)N([C@H](C)CO)C[C@H]1C	?	-5	-0.53	-0.6
Cc1ccc(S(=O)(=O)N(C)C[C@@H]2Oc3ccc(NS(=O)(=O)c4ccccc4)cc3C(=O)N([C@H](C)CO)C[C@@H]2C)cc1	nt	-4	0.97	3.1
CSc1nnc2c(n1)OC(C)Nc1ccccc1-2 (stereo not given)	-16	25	-0.34	0.4
CC(C)C(NS(=O)(=O)c1ccccc1F)C(=O)O (stereo not given)	nt	-16	nt	2.9
COCCN1C(=O)/C(=C/c2cn(CC(=O)OC)c3ccccc23)C(=O)N(c2ccccc2)C1=O	-2	-5	0.034	1.3
C[C@@H]1CN([C@@H](C)CO)C(=O)Cc2cc(NC(=O)Cc3cn(C)c4ccccc34)ccc2O[C@@H]1CN(C)S(=O)(=O)c1cn(C)cn1	21	6	-0.041	0.2
C=CCn1c(SCC(=O)c2ccccc2)nnc1-c1sc2nc(C)cc(C)c2c1N	35	13	-0.049	1.2
C[C@@H]1CN([C@@H](C)CO)C(=O)c2cccc(NS(=O)(=O)c3cn(C)cn3)c2O[C@@H]1CN(C)Cc1ccccc1	-61	2	-0.68	1.6
Cc1ccc(S(=O)(=O)Nc2ccc3c(c2)C(=O)N([C@H](C)CO)C[C@H](C)[C@@H](CN(C)C(=O)NC(C)C)OCCCC[C@@H](C)O3)cc1	-5	-5	0.37	nt
C[C@H]1CN([C@@H](C)CO)C(=O)c2cccc(NC(=O)Nc3ccc4c(c3)OCO4)c2O[C@@H]1CN(C)Cc1ccc(Cl)c(Cl)c1	-13	5	-0.25	nt
C[C@H](CO)N1C[C@H](C)[C@H](CN(C)C(=O)Nc2ccc3c(c2)OCO3)Oc2c(NC(=O)c3ccc(-c4nccs4)cc3)cccc2C1=O	-21	-10	-0.016	1.5
C[C@@H]1CN([C@@H](C)CO)C(=O)c2cc(NS(=O)(=O)c3ccccc3)ccc2O[C@@H]1CN(C)C(=O)Nc1cccc2ccccc12	nt	9	-0.16	0.4
C[C@H](CO)N1C[C@H](C)[C@H](CN(C)C(=O)Nc2ccc(F)cc2)Oc2ccc(NC(=O)CCN3CCOCC3)cc2C1=O	nt	8	-0.11	nt
COc1cc(C2OCC3C(c4cc(OC)c5c(c4)OCO5)OCC23)cc(OC)c1OC (stereo not given)	17	nt	0.86	nt
C[C@H]1CN([C@@H](C)CO)C(=O)c2cccc(NC(=O)c3nc4ccccc4s3)c2O[C@@H]1CN(C)C(=O)Nc1ccc(F)cc1	-18	-8	-0.42	-0.6
C[C@@H]1CN([C@@H](C)CO)C(=O)c2cccc(NC(=O)c3nc4ccccc4s3)c2O[C@H]1CN(C)Cc1ccc(C(=O)O)cc1	-67	-4	0.33	nt
Cc1cc(C(=O)Nc2cccc3c2O[C@@H](CN(C)C(=O)Nc2ccccc2)[C@H](C)CN([C@H](C)CO)C3=O)n(C)n1	-19	-12	0.35	1.7
CC(C)NC(=O)Cn1ccc([N+](=O)[O-])n1	nt	-41	nt	2.1
Cc1ccc(-n2c(SCC(=O)OC(C)C)nnc2-c2ccco2)cc1	nt	-37	nt	-1.0
C[C@@H]1CN([C@H](C)CO)C(=O)c2cc(NC(=O)Cc3cn(C)c4ccccc34)ccc2O[C@H]1CN(C)C	36	8	0.09	0.6
CC(C)NC(=O)Nc1ccc2c(c1)C(=O)N([C@H](C)CO)C[C@H](C)[C@H](CN(C)C(=O)Nc1ccc(C(F)(F)F)cc1)OCCCC[C@@H](C)O2	-14	35	0.094	-3.4
COc1ccc(-c2nnc(SCC(=O)Nc3cc(OC)ccc3OC)n2-c2ccccc2C)cc1	nt	0	nt	-2.2
COc1ccc(NC(=O)Nc2ccc3c(c2)C(=O)N([C@H](C)CO)C[C@@H](C)[C@H](CN(C)S(=O)(=O)c2cn(C)cn2)O3)cc1	-26	-6	0.53	0.8
COc1ccc(NC(=O)Nc2cccc3c2O[C@@H](CN(C)C(=O)Nc2cccc4ccccc24)[C@H](C)CN([C@H](C)CO)C3=O)cc1	7	0	0.58	-0.6
CC(C)NC(=O)Nc1ccc2c(c1)C(=O)N([C@@H](C)CO)C[C@H](C)[C@@H](CN(C)Cc1ccncc1)O2	nt	-9	0.022	1.3
O=C(CSc1nc2ccccc2s1)Nc1ccc(Cl)c(C(F)(F)F)c1	nt	12	nt	0.9
O=[N+]([O-])c1ccccc1/C=C/CN1CCN(CCO)CC1	nt	13	nt	-1.7
C[C@@H]1CN([C@@H](C)CO)C(=O)c2cccc(NC(=O)c3ccc(-c4nccs4)cc3)c2O[C@H]1CN(C)C(=O)Nc1cccc2ccccc12	-34	-10	0.6	0.5
Cc1ccc(NC(=O)COc2cc(C)c(Br)c(C)c2)c([N+](=O)[O-])c1	nt	-27	nt	3.5
Cc1ccc(S(=O)(=O)N(C)CC(=O)Nc2ccc([N+](=O)[O-])cc2)cc1	nt	14	nt	1.6
COc1ccc(NC(=O)Nc2ccc3c(c2)C(=O)N([C@@H](C)CO)C[C@H](C)[C@H](CN(C)S(=O)(=O)c2ccc(F)cc2)O3)cc1	-35	-13	-0.11	0.3
Cc1noc(C)c1S(=O)(=O)Nc1cccc2c1O[C@@H](CN(C)C(=O)Nc1ccc3c(c1)OCO3)[C@@H](C)CN([C@H](C)CO)C2=O	3	3	0.1	-0.7
CC(C)NC(=O)N(C)C[C@H]1Oc2c(NC(=O)c3cnccn3)cccc2C(=O)N([C@@H](C)CO)C[C@@H]1C	-19	-8	0.027	1.0
Cc1c(C)c(C)c(CSc2ccccc2N)c(C)c1C	nt	-24	-1	-2.3
COc1ccc(S(=O)(=O)Nc2ccc3c(c2)C(=O)N([C@@H](C)CO)C[C@H](C)[C@H](CN(C)C(=O)Nc2ccc4c(c2)OCO4)O3)cc1	nt	3	-0.077	-2.6

(further entries)
SMILES	Shh pathway inh	MITF inh	YB-1 expr inh	PD-1 reversal
Cc1noc(C)c1NC(=O)N(C)C[C@H]1Oc2c(NC(=O)NC(C)C)cccc2C(=O)N([C@@H](C)CO)C[C@@H]1C	5	-5	-0.18	1.0
O=C(CN1C(=O)c2cccc3cccc1c23)Nc1ccc(S(=O)(=O)N2CCCC2)cc1	nt	14	nt	-0.8
Cc1ccc(S(=O)(=O)Nc2cccc3c2O[C@H](CN(C)Cc2ccncc2)[C@@H](C)CN([C@@H](C)CO)C3=O)cc1	-24	-8	-0.59	2.1
C[C@@H]1CN([C@H](C)CO)C(=O)c2cccc(NC(=O)C3CCOCC3)c2O[C@@H]1CN(C)Cc1ccncc1	-11	6	-0.2	nt
Cc1ccc(S(=O)(=O)Nc2cccc3c2O[C@@H](CN(C)C(=O)Nc2ccc(F)cc2)[C@@H](C)CN([C@@H](C)CO)C3=O)cc1	0	8	0.53	nt
C[C@H]1CN([C@@H](C)CO)C(=O)c2cc(NC(=O)Nc3ccc(C(F)(F)F)cc3)ccc2O[C@H]1CN(C)S(=O)(=O)c1cccs1	nt	45	-0.093	1.2
Cc1noc(C)c1S(=O)(=O)Nc1ccc2c(c1)C(=O)N([C@H](C)CO)C[C@H](C)[C@H](CN(C)C(=O)NC(C)C)OCCCC[C@@H](C)O2	-3	-13	-0.46	nt
Cc1ccc(S(=O)(=O)N(C)C[C@@H]2Oc3ccc(NS(C)(=O)=O)cc3C(=O)N([C@H](C)CO)C[C@H]2C)cc1	nt	-19	0.16	6.1
C[C@H](CO)N1C[C@H](C)[C@H](CN(C)C(=O)Nc2ccc(F)cc2)Oc2ccc(NC(=O)Nc3ccc(C(F)(F)F)cc3)cc2CC1=O	19	-2	-0.24	nt
Cc1noc(C)c1S(=O)(=O)Nc1ccc2c(c1)C(=O)N([C@@H](C)CO)C[C@@H](C)[C@H](CN(C)C(=O)Nc1ccc(C(F)(F)F)cc1)O2	-24	-3	-0.32	-1.7

This is a subset. The share of hits here may be higher or lower than overall.
